VDR inhibitor: blocks the human vitamin D receptor. P11473. VDR-SRC2-3 peptide fluorescence polarization, 2 h. Potency, µM, without a hit: max response, negative = inhibition, most hits filed as inhibitors. 400,000 tested, 0.93% active. AID 504847; active = well fitted inhibition curve with a large enough effect; inconclusive = small, poorly fitted or top-dose-only effect, or another doubt; inactive = no such curve, though single readings can be large or run the other way; note: series mostly up to about 120 µM
Target sequence (P11473 whole entry, looked up): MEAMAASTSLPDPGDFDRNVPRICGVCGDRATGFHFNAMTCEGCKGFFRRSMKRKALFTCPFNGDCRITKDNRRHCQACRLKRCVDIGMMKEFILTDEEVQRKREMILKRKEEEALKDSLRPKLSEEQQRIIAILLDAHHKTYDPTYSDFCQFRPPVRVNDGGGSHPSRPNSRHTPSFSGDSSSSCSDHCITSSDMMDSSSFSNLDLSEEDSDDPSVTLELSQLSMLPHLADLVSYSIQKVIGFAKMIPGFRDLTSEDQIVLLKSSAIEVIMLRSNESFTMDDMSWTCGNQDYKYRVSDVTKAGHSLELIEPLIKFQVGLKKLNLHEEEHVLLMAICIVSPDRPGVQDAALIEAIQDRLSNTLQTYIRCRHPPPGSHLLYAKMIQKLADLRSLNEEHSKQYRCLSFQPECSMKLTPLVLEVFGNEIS
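Measured by FP: displacement of SRC2-3 coactivator peptide from VDR by library compounds, following a two-hour ambient incubation.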
* marks the source's active call; other numbers are inactive results; ? = inconclusive; & = joins results of further samples. % is set by controls: 0 for no effect and ±100 for the full control effect; potency is the fitted concentration of half-maximal effect.

molecule | VDR inhibitor
O=C(COc1ccccc1F)Nc1ccc2oc(-c3cccc(Cl)c3)nc2c1 | -2%
CS(=O)(=O)N(CC(=O)O)c1cccc(Cl)c1 | 7%
CCC1(c2ccc(F)cc2)NC(=O)N(CC(=O)Nc2cc(S(=O)(=O)N(C)C)ccc2Cl)C1=O (stereo not given) | -8%
Clc1cccc(Oc2ncc(CN3CCOCC3)s2)c1 | -3%
CC(=O)c1ccc(S(=O)(=O)N2CCN(C(C)=O)CC2)cc1 | -9%
COc1cccc(-c2cncnc2NCCc2c[nH]c3ccc(OC)cc23)c1 | ?
N#Cc1ccc(CN2CC[C@@]3(CCCN(C(=O)c4cccc(F)c4)C3)C2)cc1 | -19%
CCCCc1c(C)nn(-c2nnc3c4ccccc4n(CC)c3n2)c1C | -13%
Cc1ccc(S(=O)(=O)N(CC(=O)N2CCOCC2)C2CCCCC2)cc1 | 1%
CC(C)(C)c1ccc(S(=O)(=O)N2CCNC(=O)C2)cc1 | 10%
Cc1ccc([N+](=O)[O-])cc1-c1[nH]c(-c2ccc(O)c(O)c2)nc1-c1ccccc1 | 3%
Nc1nonc1-n1nnc(C(=O)N/N=C/c2ccc(Br)cc2)c1-c1ccc2c(c1)OCO2 | -9%
CC(C)Cn1c(N)c(C(=O)COC(=O)c2ccncc2)c(=O)n(C)c1=O | 5%
CCc1cccc(NC(=O)C(c2ccccc2)N2Cc3ccccc3C2=O)c1 (stereo not given) | 8%
COc1ccc(S(=O)(=O)N2CCCCCC2)cc1C(=O)N(C)CC(=O)Nc1c(Cl)cccc1Cl | -12%

Other compounds follow.
molecule | VDR inhibitor
Cc1cccc(C)c1NC1=NC(C)(C)N=C(N)N1 | -6%
CCN(c1ccccc1)S(=O)(=O)c1nnc(NC(=O)c2cccs2)s1 | -6%
CCN1CCOC(=O)C1CC(=O)Nc1ccc(C)c(Cl)c1 (stereo not given) | -18%
Nc1ccc(C(=O)N/N=C\C=C\c2ccc([N+](=O)[O-])cc2)cc1 | 9%
COc1ccc([N+](=O)[O-])cc1NC(=O)CSc1nncn1-c1ccccc1 | -10%
CC(=O)c1ccc(NC(=O)C2CCCN(S(=O)(=O)c3cccc4nonc34)C2)cc1 (stereo not given) | -13%
CCn1c(SCc2ccccc2)nc2c1c(=O)[nH]c(=O)n2C | -25%
O=C(Nc1cccn2ncnc12)C(F)(F)F | 2%
O=C(N1CCOCC1)N1CCN(S(=O)(=O)c2ccc(F)cc2)CC1 | 23%
CCOC(=O)N1CCc2c(sc3c2c(=O)n(Cc2ccccc2)c(=O)n3CC(=O)Nc2c(C)cccc2C)C1 | 5%
CCn1cc(CN2CCCC(C(=O)c3ccc(-c4ccccc4)c(F)c3)C2)cn1 (stereo not given) | 0%
CCOC(=O)c1[nH]c2cc(OC)c(OC)cc2c1NC(=O)CCN1CCSCC1 | 5%
Cc1ccc(NC(=O)c2ccc(NCc3ccc(F)cc3)nc2)cc1 | 1%
O=C(c1ccccc1)c1c[nH]c2cc3c(cc2c1=O)OCCO3 | 2%
COc1ccccc1-c1nc2c(c(SCC(=O)Nc3ccccc3F)n1)Cc1c(CO)cnc(C)c1O2 | 9%

Later entries.
molecule | VDR inhibitor
COC(=O)c1ccc(COc2ccccc2/C=N/NS(=O)(=O)c2ccccc2)cc1 | -5%
CCCCn1c(N)c(N(Cc2ccccc2OC)C(=O)CSCC(=O)Nc2ccc(C)cc2)c(=O)[nH]c1=O | -2%
Cc1onc(-c2c(Cl)cccc2Cl)c1C(=O)N1CCc2ccccc2C1 | 2%
CC(C)Cc1nc(N2CCN(C(=O)c3ccco3)CC2)c(C#N)c2c1CCCC2 | 9%
Cc1csc(CN(C)C(=O)c2cn(Cc3cccc4ccccc34)nn2)n1 | 1%
CCOC(=O)/C=C1/SCC(=O)N1CC(=O)c1ccc[nH]1 | 12%
COc1ccc2[nH]cc(CCNC(=O)c3cnn(-c4ccc(C)cc4)c3C3CCN(C(=O)OC(C)(C)C)CC3)c2c1 | 9%
O=C(N/N=C/c1cc(Br)c(Br)o1)c1cc2ccccc2o1 | -2%
Cc1cc(C)n(CC(=O)NCc2cc(-c3nn(C)c(=O)c4ccccc34)ccc2C)n1 | 12%
OCCN(Cc1ccccc1)C(=S)NC1CCCCC1 | -6%
CN1C(=O)CSc2ccc(NC(=O)NCc3ccco3)cc21 | -13%
Cc1c(-n2cc(C(=O)c3ccccc3O)cc(C#N)c2=O)c(=O)n(-c2ccccc2)n1C | -11%
COC(=O)c1sc(-c2ccccc2)cc1NC(=O)c1cccc(F)c1 | 18%
CCC(C)(C)NS(=O)(=O)c1cc(-c2cc(C)no2)ccc1C | 1%
COC(=O)c1ccc(COc2ccc(/C=C(\C#N)c3nc4ccccc4[nH]3)cc2OC)o1 | 17%

Next structures follow:
molecule | VDR inhibitor
Cc1ccc(CNC(=O)CC2C(=O)Nc3c2c(=O)n(C)c(=O)n3Cc2ccccc2)cc1 (stereo not given) | -3%
COc1ccccc1C1NC(=O)NC(C)=C1C(=O)Nc1cccc(C)c1C (stereo not given) | -16%
O=c1nc(N2CCCCC2)nc2n1CCO2 | -4%
O=S(=O)(c1ccc(Br)cc1F)N1CC[C@H](O)C1 | 9%
CCCc1cc(=O)n2[nH]cc(-c3ccc(Cl)cc3)c2n1 | -16%
CCCNC(=O)c1onc(CSc2ccccn2)c1C(=O)NCCC | -10%
COc1c(/C=N/Nc2ccc([N+](=O)[O-])cc2[N+](=O)[O-])c(C)nn1-c1ccccc1 | -9%
COc1cccc2c1C(=O)c1c(O)c3c(c(O)c1C2=O)C[C@](O)(C(=O)CO)C[C@H]3O[C@@H]1C[C@H](N)[C@H](O)[C@H](C)O1 | 1%
O=C(COC(=O)COc1ccccc1)NCCC1=CCCCC1 | 5%
Cc1csc(=Nc2cccnc2)n1Cc1ccco1 | -8%
O=C(NCc1cccc(Cl)c1)c1cc2ccc3cccnc3c2[nH]1 | -2%
CCN1CCN(C(=O)c2ccc(OC)c(S(=O)(=O)Nc3ccc(C)cc3)c2)CC1 | 11%
O=C(c1ccco1)N1CCN(C(c2cccs2)c2nnnn2C2CCCCC2)CC1 (stereo not given) | -11%
O=C(O)c1cccnc1SCc1cn2cc(Br)ccc2n1 | ?
CCn1c(Cc2ccccc2)nnc1SCc1cccc(C(=O)O)c1 | -5%

More records:
molecule | VDR inhibitor
CN1CCN(CC(=O)Nc2ccccc2Oc2ccccc2)CC1 | -26%
CNC(=O)c1cc(Nc2nnc(-c3ccc(O)cc3)c3ccccc23)ccc1OC | -16%&-7%
CCOC(=O)N1CCN(C(=O)c2cc(-n3cnnc3)ccc2Cl)CC1 | 1%
Cn1c(C(=O)Nc2ccc3c(c2)OCO3)cc2c(=O)n(C)c3ccccc3c21 | -2%
COC(=O)c1sc2nc(SCc3ccccc3C#N)n(N)c(=O)c2c1C | 5%
COc1cccc(NC(=O)C2CC(=O)N(Cc3ccc(C)cc3)C2)c1 (stereo not given) | 14%
O=C(CCSc1ccccc1Cl)NNC(=O)c1ccncc1 | -3%
Cc1ccc(N2C(=O)SC(Cc3ccccc3)C2=O)cc1 (stereo not given) | ?
O=C(N/N=C/c1ccc(N2CCOCC2)cc1)C1COc2ccccc2O1 (stereo not given) | -11%
CCc1cc(=O)oc2cc(OC(=O)c3ccco3)ccc12 | 12%
O=C(CCC(=O)N1CCOc2ccc(Cl)cc21)NCCN1CCOCC1 | 7%
COc1ccc(NC(=O)CCS(=O)(=O)c2cccc3nonc23)cc1 | -4%
CCCC(=O)N1CCN(c2ccc(NC(=O)c3cccs3)cc2)CC1 | -17%
COc1ccc(C2CC(c3cccs3)=NN2C(=O)CSc2nc(=O)n3ccc(C)cc3n2)cc1 (stereo not given) | -8%
N#C/C(=C\c1cccnc1)C(=O)NC1CCCCC1 | ?

Later entries
molecule | VDR inhibitor
O=C(COC(=O)Cn1c(C(F)(F)F)nc2ccccc21)Nc1ccc2c(c1)OCCO2 | 7%
CCn1c(=O)c(C(=O)CN2CCCc3ccccc32)c(N)n(Cc2ccccc2)c1=O | -12%&-5%
O=C(c1cc(C2CC2)nn1-c1ccccc1)N1CCN(c2ccccc2O)CC1 | -16%
CCC(C)C(=O)Nc1nc(-c2ccc3c(c2)NC(=O)CO3)cs1 (stereo not given) | ?
Cn1cccc1CC(=O)N/N=C\c1ccccc1 | 27%
O=c1[nH]c2ccc(S(=O)(=O)Nc3ccc(Cl)cc3)cc2o1 | 11%
O=C(Nc1cccnc1)c1cccc(NC(=O)c2ccco2)c1 | -2%
O=C(CCNC(=O)c1ccc(Br)o1)NCc1ccccc1Cl | 12%
COC(=O)C(C(=O)Nc1ccc(OC)cc1)C1CCCCCC1 (stereo not given) | -2%
Clc1ccc2c(N/N=C/c3ccc(Br)cc3)ccnc2c1 | 23%
CCc1nn(CC(=O)NCc2ccco2)c(=O)c2cc3cc(F)ccc3n12 | 10%
O=C(COC(=O)/C=C/c1ccccc1)NC1CCCC1 | 6%
O=C(NCc1ccc(F)cc1)c1ccc2c(O)c(S(=O)(=O)c3ccccc3)c(=O)[nH]c2c1 | 2%
COc1ccc(CC(=O)NCc2nnc(SCC(=O)Nc3ccccc3)n2C)cc1 | 15%
COc1ccccc1C(=O)NNC(=O)C1CCN(C(=O)OC(C)(C)C)CC1 | -11%

Remaining list, next part.
molecule | VDR inhibitor
C=CC[C@@H](CC(=O)N(CCO)Cc1ccccc1)C(=O)N[C@H](COC(=O)[C@@H](CC=C)Cc1ccc(F)cc1)c1ccccc1 | -8%
CC(C)CCN(Cc1ccco1)C(=O)Cn1ncc2c([nH]c3ccccc32)c1=O | 3%
c1ccc(OCc2nn3c(-c4ccncc4)nnc3s2)cc1 | -12%
COc1ccc(CN(C(=O)Cn2nnc(-c3ccc(C)o3)n2)C(C(=O)NCC2CCCO2)c2ccco2)cc1 (stereo not given) | -4%
O=C(O)c1[nH]c2ccc([N+](=O)[O-])cc2c1-c1ccccc1 | -25%
CCOC(=O)c1nn(-c2ccc(Cl)cc2)cc1O | -2%
CC(C)c1ccc(NS(=O)(=O)c2ccc(-n3cccn3)cc2)cc1 | -9%
COC(=O)C1=C(C(=O)OC)[C@@H]2N(C)c3ccc(OC)cc3[C@@]23C[C@@H](C(=O)OC)N(S(=O)(=O)c2ccc(OC)cc2)C3=N1 | -16%
N#CCCn1cc(/C=C/C(=O)O)c(-c2ccc(F)cc2)n1 | 6%
CCN1CCN(c2cc(=O)n(-c3cc(Cl)ccc3C)c(=O)[nH]2)CC1 | -4%
COc1ccc(-c2n(CC(=O)OC3CC(C)CCC3C(C)C)c3ccccc3[n+]2C)cc1 (stereo not given) | -17%
CCOC(=O)C1(Cc2ccccc2)CCCN(C(=O)C=C(C)C)C1 (stereo not given) | 0%
COc1ccccc1N1CCN(C(=O)c2cc(-c3ccc(C)c(F)c3)on2)CC1 | 5%
CC(=O)c1c(C)[nH]c(C(=O)NCCC2=CCCCC2)c1C | -15%
Cc1ccc(Cl)cc1N(CC(=O)N1CCOCC1)S(C)(=O)=O | -19%

Further entries
molecule | VDR inhibitor
CC(C)(CO)NS(=O)(=O)c1ccc2c(c1)C(=NO)c1cc(S(=O)(=O)NC(C)(C)CO)ccc1-2 | 4%
CCOc1nc(Nc2ccc(Cl)cc2)nc(OCC)n1 | -19%
O=C(C1CCCO1)N1CCN(S(=O)(=O)c2ccc(Cl)cc2)CC1 (stereo not given) | -7%
C=CCNc1ncnc2c1[nH]c1ccc(C)cc12 | 3%
O=C(COC(=O)c1cccc(Br)c1)NC(=O)NC1CCCC1 | -3%
Cc1ccc(NC(=O)c2cn(-c3cccc(C)n3)cn2)cc1 | 13%
Cc1nc2[nH]c(=S)[nH]c(=O)c2nc1C | -18%
O=C(c1ccc2c(c1)N(Cc1ccc(F)cc1)C(=O)c1ccccc1S2(=O)=O)N1CCN(c2ccccn2)CC1 | -8%&-19%
COc1ccccc1CNC(=O)CCCn1nc(C)c2sc3ccccc3c2c1=O | 24%
COc1ccc(N(C(C)C(=O)NN=C2CCCC2)S(C)(=O)=O)cc1 (stereo not given) | 16%
O=C(NCc1ccc(C(F)(F)F)cc1)c1ccc2c(c1)S(=O)(=O)c1ccccc1C2=O | -12%
COc1ccccc1C(=O)Nc1ccnn1C1CCN(Cc2cnn(C)c2)CC1 | -8%
COc1ccc(NC(=O)CCc2nnc3ccc(NCc4ccco4)nn23)cc1OC | -18%

Structures from the list above with a furan ring, fused or not:
molecule | VDR inhibitor
CC(C)Cc1nc(N2CCN(C(=O)c3ccco3)CC2)c(C#N)c2c1CCCC2 | 9%
O=C(N/N=C/c1cc(Br)c(Br)o1)c1cc2ccccc2o1 | -2%
CN1C(=O)CSc2ccc(NC(=O)NCc3ccco3)cc21 | -13%
COC(=O)c1ccc(COc2ccc(/C=C(\C#N)c3nc4ccccc4[nH]3)cc2OC)o1 | 17%
Cc1csc(=Nc2cccnc2)n1Cc1ccco1 | -8%
O=C(c1ccco1)N1CCN(C(c2cccs2)c2nnnn2C2CCCCC2)CC1 (stereo not given) | -11%
CCc1cc(=O)oc2cc(OC(=O)c3ccco3)ccc12 | 12%
O=C(Nc1cccnc1)c1cccc(NC(=O)c2ccco2)c1 | -2%
O=C(CCNC(=O)c1ccc(Br)o1)NCc1ccccc1Cl | 12%
CCc1nn(CC(=O)NCc2ccco2)c(=O)c2cc3cc(F)ccc3n12 | 10%
CC(C)CCN(Cc1ccco1)C(=O)Cn1ncc2c([nH]c3ccccc32)c1=O | 3%
COc1ccc(CN(C(=O)Cn2nnc(-c3ccc(C)o3)n2)C(C(=O)NCC2CCCO2)c2ccco2)cc1 (stereo not given) | -4%
COc1ccc(NC(=O)CCc2nnc3ccc(NCc4ccco4)nn23)cc1OC | -18%

Screens deposited in PubChem BioAssay by National Center for Advancing Translational Sciences (NCATS).

Only part of the results is shown; count on the stated rates, not on these rows.
